From PubChem
TRPV1 potentiator – human TRPV1 potentiation. Q8NER1. TRPV1-expressing cells, Fluo-8 calcium influx, capsaicin EC20 potentiation; host cell line not named in the record; control for the full effect not named in the record. potentiation, % at 8.33 µM. 320,000 compounds, 0.02% hits. AID 540277; active means potentiation above 80%; inconclusive means 30% to 80%; inactive means below 30%; further: 0% is about no effect
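Cells expressing TRPV1 were dye-loaded with Fluo-8 and read kinetically: 10 s baseline, 3 min after compound (agonist portion), then 2 min after EC20 capsaicin (allosteric enhancer portion). Calcium-bound dye fluorescence at 480/520 nm.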
TRPML1 agonist – human mucolipin-1 channel agonism. Q9GZU1. activation, % (concentration not given with the values). TRPML1-expressing cells, Ca2+ dye fluorescence, FDSS; host cell line not named in the record; reference of the full effect not given here. 410,000 compounds, 0.12% hits; in the data active = activation above about 50%; inconclusive = about 30% to 50%; inactive = below about 30%; further: 0% is about no effect; the text of the record puts the active cut at 80%
Target sequence (Q9GZU1 whole entry, looked up): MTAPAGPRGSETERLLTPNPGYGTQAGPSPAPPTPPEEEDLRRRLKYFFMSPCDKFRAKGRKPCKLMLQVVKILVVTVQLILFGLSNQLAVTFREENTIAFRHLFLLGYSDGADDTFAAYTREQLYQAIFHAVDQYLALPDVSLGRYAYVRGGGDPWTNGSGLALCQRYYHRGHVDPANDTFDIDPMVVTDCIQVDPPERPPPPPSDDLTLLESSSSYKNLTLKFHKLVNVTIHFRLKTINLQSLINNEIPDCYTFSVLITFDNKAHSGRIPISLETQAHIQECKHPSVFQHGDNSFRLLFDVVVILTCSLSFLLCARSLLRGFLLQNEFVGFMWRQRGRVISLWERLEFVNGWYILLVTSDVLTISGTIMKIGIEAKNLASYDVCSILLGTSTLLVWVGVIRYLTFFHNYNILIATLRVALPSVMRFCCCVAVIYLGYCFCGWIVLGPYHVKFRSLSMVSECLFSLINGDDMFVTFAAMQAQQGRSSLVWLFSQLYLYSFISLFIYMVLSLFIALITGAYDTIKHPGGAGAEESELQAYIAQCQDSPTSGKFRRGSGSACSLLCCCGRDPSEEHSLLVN
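Cells: TRPML1-DL, 1X Tet inducer, ~16 h at 37 degrees C/5% CO2. Dye: ABD Ca8 no-wash + quencher, 45-90 min RT. Read: 10 s baseline, compound add, 110 s agonist phase; 54-4 EC80 (4uM final), 110 s antagonist phase.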
Six1-Eya2 inh – inhibitors of human Six1/Eya2 interaction; activity change, % (test concentration not listed); 360,000 compounds, 0.56% hits; AlphaScreen GST-Six1/His-Eya2 binding, biochemical; hits give low values; control for the full effect not named in the record; AID 651725; in the data active = activity change below about -65%; inconclusive = about -30% to -65%; inactive = above about -30%; further: on the % scale 0 is the no-effect control and ±100 the full control effect
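Six1/Eya2 binding was read as AlphaScreen signal after compounds were pinned into GST-Six1 plus His-tagged Eya2 (5X stock 250/500 nM) in pH 8.0 Tris/NaCl/TCEP buffer, beads added, then incubated 1 h, 37 C, dark.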
TRPML1 inh – blocks the human TRPML1 channel. Q9GZU1. TRPML1-inducible cells, Ca2+ dye fluorescence, FDSS; hits give low values; inhibition of EC80 agonist-evoked calcium signal. activity change, negative = inhibition, % (no concentration beside the values). 390,000 compounds, 0.02% hits. AID 624415; in the data active means activity change below about -50%; inconclusive means about -30% to -50%; inactive means above about -30%;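 further: stimulus is agonist 54-4 at its EC80 concentration; on the % scale 0 is the no-effect control and ±100 the full control effect; compound concentration not given in the record; the text of the record puts the active cut at -80%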
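Calcium fluorescence in TRPML1-DL cells induced overnight with Tet: a 110 s read after compound pin addition, then a 110 s antagonist read after challenge with 54-4 at 4 uM final (EC80).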
CtBP-E1A blk – inhibitors of CtBP/E1A interaction; activity change, % (no concentration beside the values); AlphaScreen GST-E1A/His-CtBP binding, 1536-well; hits give low values; control for the full effect not named in the record; 340,000 compounds, 0.49% hits; in the data active means activity change below about -65%; inconclusive means about -30% to -65%; inactive means above about -30%; further: on the % scale 0 is the no-effect control and ±100 the full control effect
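AlphaScreen with 125 nM GST-E1A and 125 nM His-CtBP (5X stocks) in Tris pH 8.0, 300 mM NaCl, BSA, Tween 20, TCEP. Compounds preincubated 2 h at 37 deg C, then glutathione donor/nickel acceptor beads added for 1 h at 37 deg C in dark.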
D2 PAM – human D2 receptor positive allosteric modulation; DiscoveRx D2 beta-arrestin cells, luminescence, 90 min; 100% = 57 uM dopamine signal; P14416; 360,000 compounds, 0.23% hits; potentiation, % (no concentration beside the values); active = potentiation of 50% or more; inconclusive = 30% to 50%; inactive = 30% or less;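 further: compound concentration not given in the record; tested on top of an EC20 dose of dopamine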
Target sequence (P14416 whole entry, looked up): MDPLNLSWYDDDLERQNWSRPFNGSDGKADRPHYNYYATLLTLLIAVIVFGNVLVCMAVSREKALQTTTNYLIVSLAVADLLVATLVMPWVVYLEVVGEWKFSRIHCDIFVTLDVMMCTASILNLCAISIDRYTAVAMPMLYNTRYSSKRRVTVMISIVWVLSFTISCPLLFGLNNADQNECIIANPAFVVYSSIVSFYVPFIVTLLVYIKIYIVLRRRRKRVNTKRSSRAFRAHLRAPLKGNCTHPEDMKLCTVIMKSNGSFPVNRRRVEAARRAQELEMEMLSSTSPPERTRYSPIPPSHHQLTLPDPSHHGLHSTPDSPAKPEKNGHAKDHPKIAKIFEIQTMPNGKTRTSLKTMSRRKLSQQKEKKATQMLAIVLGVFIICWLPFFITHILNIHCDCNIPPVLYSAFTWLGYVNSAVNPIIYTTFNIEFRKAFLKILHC
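D2 cells co-treated with compound plus 50 nM dopamine (EC20) for 90 min at 37 deg C to detect potentiation. Beta-arrestin recruitment was read as enzyme-fragment luminescence after 1 h at ambient temperature. Full response was set by 57 uM dopamine.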
* = called active by the depositor; ? = inconclusive; . = not tested or not shown; & = joins results of further samples.

SMILES | TRPV1 potentiator | TRPML1 agonist | Six1-Eya2 inh | TRPML1 inh | CtBP-E1A blk | D2 PAM
CCN1CCn2c1nc(N1CCCCC1)nc2=O | -5 | 0.4 | 0 | -10 | 4 | 2
NS(=O)(=O)c1ccc(Nc2ccc3nonc3c2[N+](=O)[O-])cc1 | 4 | 0.1 | -2 | -5 | -8 | -4
CC1(C)CC(=O)C(Sc2nnc(-c3ccc(NS(C)(=O)=O)cc3)n2Cc2ccco2)C(=O)C1 | -4 | 1.3 | -2 | 19 | 7 | -10
c1ccc2[nH]c(CN3CCOCC3)nc2c1 | 7 | -0.1 | -6 | 11 | -14 | 8
O=CN1CCN(C(=S)Nc2ccc(OC(F)F)cc2)CC1 | 5 | -0.3 | 1 | 3 | . | -15
CCOC(=O)c1nnn(-c2nonc2N)c1CSc1nnc(N)s1 | -8 | 0.0 | -7 | 6 | 2 | 2
O=S(=O)(c1ccc(SCCOc2ccc(F)cc2)nc1)N1CCCC1 | 16 | 3.0 | 16 | 24 | . | -3
COc1ccc(C(=O)OCC(=O)Nc2cc(C)on2)cc1S(=O)(=O)N1CCOCC1 | 0 | 2.1 | 3 | -22 | 1 | -11
CN(CC(=O)NCc1ccccn1)S(=O)(=O)c1ccccc1 | 11 | -0.1 | 1 | 4 | 11 | 1
COc1ccc(-c2cnc(N)nc2-c2ccc(OCc3ccccc3)cc2O)cc1 | 2 | 2.2 | -25 | 30 | -19 | 0
COc1ccc(CCNC(=O)C2CCN(C(=O)c3ccc(Br)cc3)CC2)cc1OC | ? | . | -1 | . | . | 20
CCN(CC)S(=O)(=O)c1ccc(NN)nc1 | -1 | 0.5 | -15 | 24 | 0 | 15
Cc1ccc(NC(=O)Cc2ccccc2Cl)cc1S(=O)(=O)N(C)C | -5 | 1.8 | 13 | -8 | -10 | 3
CC(C)(C)NC(=O)CSc1ncnc2c1nnn2Cc1ccccc1Cl | -3 | 0.7 | -4 | 10 | 12 | -13
Cc1cccc(C)c1NC(=S)N1CCOCC1 | 4 | 0.2 | 2 | 33 | -8 | -7
CC(C)(C)NC(=O)C(c1ccc(F)cc1)N(Cc1ccco1)C(=O)CCC(=O)Nc1nccs1 (configuration not stated) | -9 | -1.3 | -1 | 6 | -5 | -1
O=[N+]([O-])c1c(Nc2cccc(O)c2)cc(Cl)c2nonc12 | -8 | 0.3 | ? | 21 | -20 | -9
Nc1ncnc2c1ncn2C1C=C(CO)C(O)C1O (configuration not stated) | . | -0.3 | 3 | -16 | -1 | -14
Cc1ccccc1CN1C(=O)CSc2ccc(C(=O)N3CCOCC3)cc21 | -10 | -1.0 | 1 | 14 | 0 | -3
CN1CCN(S(=O)(=O)c2cccc(C(=O)N(Cc3nnc(-c4ccc(Cl)cc4)o3)C3CC3)c2)CC1 | 9 | 0.2 | -9 | -10 | -1 | -6
CCn1nc(C)c(CNC(=O)C2CCC(=O)N(Cc3cccc(F)c3)C2)c1C (configuration not stated) | -22 | 0.4 | 1 | -11 | -3 | 5
COc1ccc(S(=O)(=O)Nc2cc(C(=O)NCCC(C)C)ccc2N2CCOCC2)cc1 | -9 | 0.5 | 24 | -8 | 36 | -7
CCCCNC(=O)CCCCCn1c(=O)[nH]c2cc(C(=O)OC)ccc2c1=O | 6 | -0.3 | -13 | -19 | -7 | -2
CCCCSCCCNC(=O)c1cn(C)c2ccc(S(=O)(=O)N3CCCC3)cc2c1=O | -10 | -0.6&2.7 | 7 | 6&-17 | 4 | -2
Cc1ccc(C)c(S(=O)(=O)NCc2ccc(C(=O)NCc3ccco3)cc2)c1 | ? | -1.4 | -7 | -11 | 2 | 2

More entries.
SMILES | TRPV1 potentiator | TRPML1 agonist | Six1-Eya2 inh | TRPML1 inh | CtBP-E1A blk | D2 PAM
CCC(NC(=O)c1cc(COc2ccc(OC)cc2Cl)on1)c1ccncc1 (configuration not stated) | ? | 1.1 | 1 | -11 | 4 | -25
NC1=NC[C@H](Cc2ccccc2)N1CCCCC1CCCCC1 | -4 | 0.5 | -1 | 3 | 0 | -7
CCn1cc(CNC(=O)NC2CCCCC2)c(C)n1 | 8 | -0.4 | 5 | -7 | 2 | -9
O=c1cc(-c2ccc(Cl)cc2)[nH]c2ccccc12 | -10 | 0.6 | 6 | 2 | -7 | -23
CCOc1ccccc1C(=O)OCC(=O)NCC1CCCO1 (configuration not stated) | -2 | 0.6 | 5 | 9 | 13 | -11
CNC(=S)N(Cc1ccco1)Cc1cc2cc(OC)c(OC)cc2[nH]c1=O | -14 | -0.1 | 2 | 26 | -14 | -4
CCCCCCn1c(SCC(=O)NC2CCS(=O)(=O)C2)nc2ccccc2c1=O (configuration not stated) | . | -0.3 | 7 | 10 | 1 | -13
CC(=O)NCCNC(=O)C1(C)Cc2c(-c3ccc(NC(C)=O)cc3)ccnc2O1 (configuration not stated) | . | -0.5 | 25 | . | 31 | 4
COc1cccc(C(=O)Nc2cc(=O)n(C)c(=O)n2C)c1OC | . | -0.5 | -1 | 27 | 1 | -2
CN(CC(=O)Nc1ccc(C#N)cc1)Cc1ccc(Cl)c(Cl)c1 | -18 | -0.4 | 1 | -2 | -3 | -7
Cc1cnnn1-c1cccc([N+](=O)[O-])c1 | -11 | -0.4 | 7 | 6 | 8 | -3
Cn1c(=O)c2c(ncn2CC(O)CO)n(C)c1=O (configuration not stated) | 6 | 0.0 | 1 | -6 | 6 | -4
Cc1nn(C)cc1CNC(=O)c1cnn2c1NC(c1ccc(Br)cc1)CC2C(F)(F)F (configuration not stated) | -7 | 1.0 | 1 | 11 | 7 | -7
COc1cccc(CNC(=O)COC(=O)c2ccc(N3CCCC3=O)cc2)c1 | . | -0.7 | 3 | 10 | 8 | -5
Cc1nc(=O)c(-c2ccccc2)c(C)n1-c1ccc(C(=O)O)cc1 | 3 | -1.1 | 12 | -16 | 7 | -1
COc1cccc(NC(=O)CSc2nnc(-c3cc(C)n(-c4ccccc4)c3C)o2)c1 | 2 | 1.6 | -15 | 25 | -17 | 4
O=C(Nc1ccccc1Br)c1ccc(OC(=S)N2CCOCC2)cc1 | -15 | -0.1 | 0 | -4 | 1 | -5
CC(=O)c1ccc(OCCCC(=O)NC2CCC(C)CC2)cc1 (configuration not stated) | -8 | 0.1 | 3 | 7 | 0 | -5
COc1ccc(Cl)cc1NC(=O)CSc1nnc(C2CC2)n1C | ? | -0.6 | 14 | 15 | 20 | -11
CC(=O)c1ccc(S(=O)(=O)N2CCN(C(=O)CCC3CCCC3)CC2)cc1 | 15 | 0.9 | 2 | -12 | -17 | 6
Cc1oc(C(C)(C)C)cc1C(=O)N1CCCC1C(=O)O (configuration not stated) | ? | 0.8 | 0 | 40 | -3 | -11
O=C(NCCn1ccc2ccccc21)c1ccc(S(=O)(=O)N2CCOCC2)cc1 | -19 | 0.6 | 1 | 3 | -3 | -5
Cn1cc(C2NC(=O)c3ccccc3N2)c2ccccc21 (configuration not stated) | . | -0.3 | -5 | -12 | 4 | -12
CN(Cc1ccccc1)C(=O)c1ccc2nc([C@H]3C[C@H](O)[C@@H](CO)O3)[nH]c2c1 | . | 0.1 | 10 | -24 | -11 | -7
Cc1cccc(NC(=O)C2CCN(C(=O)[C@@H]3Cc4ccccc4CN3)CC2)c1 | 5 | 2.5 | -7 | 4 | . | -11

Not a retest: entries from further up.
SMILES | TRPV1 potentiator | TRPML1 agonist | Six1-Eya2 inh | TRPML1 inh | CtBP-E1A blk | D2 PAM
CCN1CCn2c1nc(N1CCCCC1)nc2=O | -5 | 0.4 | 0 | -10 | 4 | 2
NS(=O)(=O)c1ccc(Nc2ccc3nonc3c2[N+](=O)[O-])cc1 | 4 | 0.1 | -2 | -5 | -8 | -4

The list continues:
SMILES | TRPV1 potentiator | TRPML1 agonist | Six1-Eya2 inh | TRPML1 inh | CtBP-E1A blk | D2 PAM
Cc1cccc(NS(=O)(=O)c2cccc(C(=O)NCC(c3ccco3)N3CCCCC3)c2)c1 (configuration not stated) | -11 | -0.2 | -5 | -5 | -26 | -38
NC(=O)c1nsc(C(=O)N(c2cccc(O)c2)C(C(=O)NC2CCCC2)c2ccc(Cl)cc2)c1N (configuration not stated) | 3 | 0.0 | 4 | 12 | 6 | -4
O=C(Cn1cc2c(n1)CCCCC2)N1CCc2ccccc21 | 10 | 0.2 | 8 | 8 | 1 | -4
COc1ccc(C2CC(c3ccc(F)cc3)Nc3nc(N)nn32)cc1 (configuration not stated) | 0 | 0.1 | -1 | 18 | 5 | -4
CCOC(=O)N1CCN(C(=O)CN(Cc2ccc(Cl)cc2)S(=O)(=O)c2ccccc2)CC1 | -12 | 0.0 | 0 | 3 | 5 | -3
O=C(O)COCC(=O)N1CCCN(c2ccc(C(F)(F)F)cn2)CC1 | ? | -0.2 | 5 | -9 | -1 | -5
COc1cc(NC(=O)CN(C)C2CCCCC2)c(C)cc1[N+](=O)[O-] | 11 | 2.0 | -3 | -7 | -2 | -11
COCC(C)NC(=O)C1c2ccccc2Oc2ccccc21 (configuration not stated) | -1 | 0.7 | 6 | 3 | -2 | -2
CC(=O)c1cccc(NC(=O)N2CCC(c3ccc(C)cc3)C2)c1 (configuration not stated) | 17 | -0.4 | 8 | -11 | 0 | -11
CCc1ccc(NC(=O)CC2C(=O)NCCN2C(=O)c2ccc(F)cc2)cc1 (configuration not stated) | -3 | -0.1&-0.3 | 11 | -4&-7 | -4 | -9
CCC(=O)Nc1nnc(S(=O)(=O)N2CCCC2)s1 | -1 | -0.5 | 7 | -3 | -21 | -4
N#C/C(=C(/O)COc1cccc2ccccc12)c1nc2ccccc2[nH]1 | -11 | -1.0 | 10 | -5 | 3 | 11
CN(C)c1cc[n+](/C(C(=S)Nc2ccc(SC(F)F)cc2)=C(/[O-])c2ccccc2)cc1 | -14 | -0.8 | 0 | 15 | 4 | -17
CC(C)CNc1nc(Oc2ccc(=O)[nH]n2)nc(N(C)C)n1 | 20 | 0.7 | 3 | 3 | 12 | 3
CSCCC(c1nc2ccccc2[nH]1)n1c(C)nc2ccccc21 (configuration not stated) | . | -0.3 | 1 | . | -3 | .
Clc1ccc(-n2c(SC/C=C/c3ccccc3)nnc2-c2cccnc2)cc1 | -11 | 1.1 | -5 | 5 | -3 | -13
Cc1cccc(-c2nnc3n2N=C(c2ccccc2Br)CS3)c1 | 5 | 3.6 | -24 | 9 | -11 | -15
CC(C)C[C@@H]1CC2=C(C(=O)OC(C)(C)O2)[C@H](CCc2ccccc2)O1 | . | -0.6 | 12 | . | 2 | .

Only TRPML1 inh and Six1-Eya2 inh, for three of the compounds above:
molecule | TRPML1 inh | Six1-Eya2 inh
CC(C)CNc1nc(Oc2ccc(=O)[nH]n2)nc(N(C)C)n1 | 3 | 3
CSCCC(c1nc2ccccc2[nH]1)n1c(C)nc2ccccc21 (configuration not stated) | . | 1
Clc1ccc(-n2c(SC/C=C/c3ccccc3)nnc2-c2cccnc2)cc1 | 5 | -5

Structural class, the entries above with a cyano group
SMILES | TRPV1 potentiator | TRPML1 agonist | Six1-Eya2 inh | TRPML1 inh | CtBP-E1A blk | D2 PAM
CN(CC(=O)Nc1ccc(C#N)cc1)Cc1ccc(Cl)c(Cl)c1 | -18 | -0.4 | 1 | -2 | -3 | -7
N#C/C(=C(/O)COc1cccc2ccccc12)c1nc2ccccc2[nH]1 | -11 | -1.0 | 10 | -5 | 3 | 11

Rows were taken by chance (roughly 0.95% active in at least one column).
